Bioassay records: PubChem BioAssay, Johns Hopkins Ion Channel Center
KCNQ2 pot: potentiators of rat KCNQ2 potassium channel; O88943; 0.54% of 310,000 active; CHO-K1 KCNQ2, FluxOR thallium flux fluorescence; active compounds read high; B-score at 10 µM; AID 2239;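 active = fluorescence ratio B-score at least 3 SD of library B-scores, with initial fluorescence B-score within 3 SD, cut at about 5.3 in these data; same plate scores as AID 2156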;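 also: B-score of peak minus minimum over baseline fluorescence ratio after K+ and Tl+ stimulus; positive B-score means potentiation of KCNQ2 with more thallium influx and brighter signal; only the inactives scoring about 0 or higher are listed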
Target sequence (O88943 whole entry, looked up): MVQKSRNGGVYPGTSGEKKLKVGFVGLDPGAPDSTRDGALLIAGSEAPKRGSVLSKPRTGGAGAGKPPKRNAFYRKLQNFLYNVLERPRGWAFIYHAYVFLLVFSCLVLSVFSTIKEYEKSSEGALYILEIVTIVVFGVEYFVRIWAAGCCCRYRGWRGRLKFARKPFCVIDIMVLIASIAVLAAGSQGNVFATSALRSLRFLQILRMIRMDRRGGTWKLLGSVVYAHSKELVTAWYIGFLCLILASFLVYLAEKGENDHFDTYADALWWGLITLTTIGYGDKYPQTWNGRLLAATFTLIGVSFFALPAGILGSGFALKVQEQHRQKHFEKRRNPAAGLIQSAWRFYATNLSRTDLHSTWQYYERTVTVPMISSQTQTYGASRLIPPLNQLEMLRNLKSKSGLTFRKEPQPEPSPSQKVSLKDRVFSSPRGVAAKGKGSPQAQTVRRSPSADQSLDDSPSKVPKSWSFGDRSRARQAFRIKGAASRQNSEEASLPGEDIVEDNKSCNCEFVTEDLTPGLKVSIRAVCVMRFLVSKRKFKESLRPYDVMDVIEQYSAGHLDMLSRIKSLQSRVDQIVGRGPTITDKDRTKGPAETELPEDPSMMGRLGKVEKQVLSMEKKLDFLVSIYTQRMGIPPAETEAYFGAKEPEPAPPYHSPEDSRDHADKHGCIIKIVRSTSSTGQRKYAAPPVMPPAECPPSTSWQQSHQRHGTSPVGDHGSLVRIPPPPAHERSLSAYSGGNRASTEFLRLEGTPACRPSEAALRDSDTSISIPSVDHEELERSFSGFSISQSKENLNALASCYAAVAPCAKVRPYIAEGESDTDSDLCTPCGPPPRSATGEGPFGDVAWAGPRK
KCNQ2 pot baseline: recorded beside KCNQ2 pot, whose call it bears; B-score; compound at 10 µM; measured here: initial fluorescence intensity artifact check;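 brightness before thallium and not channel activity; 0 = typical well and far values either way flag optical interference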
Numbers without * were called inactive. These rows are one share of the data; the hit share may differ from the screen's.

SMILES	KCNQ2 pot	KCNQ2 pot baseline
O=C(c1cc([N+](=O)[O-])cc([N+](=O)[O-])c1)N1CCCc2ccccc21	1.9	0.01
O=C(Cc1c(Cl)cccc1Cl)Nc1ccncc1	1.8	-1.6
COc1ccc(-c2coc3cc(O)ccc3c2=O)cc1OC	1.1	-0.45
Oc1ccc(C[C@@H]2CNC(=S)N2CCc2cc(C(F)(F)F)cc(C(F)(F)F)c2)cc1	0.35	0.87
C[C@H](NC(=O)C1CCN(S(=O)(=O)c2ccccc2)CC1)C(=O)NCc1ccco1	0.09	0.05
COc1nc(C)cc(C)c1S(=O)(=O)c1ccc(Cl)cc1	0.07	-1.2
Cc1sc2ncnc(SCC(=O)c3cccs3)c2c1C	6.9*	-0.29*
CCOC(=O)C1CCCN(S(=O)(=O)c2cc3c4c(c2)CCN4C(=O)CC3)C1 (stereo not given)	1.6	-0.42
COc1cccc(-c2nc(C=O)cs2)c1	0.76	-1.6
CCCC(=O)c1ccc(-c2ccccc2)cc1	1	-1.5
CC1=C(c2ccc(C)cc2)S(=O)(=O)N(CC(=O)O)C1=O	0.34	1.4
COc1cc(OC)cc(C(=O)Nc2cc(C)on2)c1	1.7	-0.56
Cc1ccc(C(=O)Nc2sc(C)c(-c3ccccc3)c2C(N)=O)cc1[N+](=O)[O-]	0.69	0.25
CC(=O)c1c(C)[nH]c(C(=O)Nc2ccccc2N2CCOCC2)c1C	0.74	2
CCOC(=O)N1CCN(C(=O)CCc2c(C)nc3nc(C)nn3c2C)CC1	0.23	-0.17
CCOc1ccccc1N(C)C(=O)C1CCN(S(=O)(=O)c2cccc3nonc23)CC1	0.1	1.5
Cc1c(NC(=O)c2ccc(F)cc2)c(=O)n(-c2ccccc2)n1C	0.99	-0.5
Cc1cc(NC(=O)CSc2nnc(-c3ccccc3Cl)o2)no1	0.95	1.4
Cc1ccc(NC2=NC(c3ccccc3)n3c(nc(C)cc3=O)N2)c(C)c1 (stereo not given)	0.01	-0.54
COc1ccc(-c2cc(CCCC(=O)NCCc3cc(OC)ccc3OC)no2)cc1	0.04	-0.15
Cc1ccc(-c2nnn(CC(=O)N3C(C)CCCC3C)n2)cc1 (stereo not given)	0.24	0.33
C=C1CCC[C@]2(C)C[C@H]3OC(=O)C(CN4CCOCC4)[C@H]3C[C@@H]12 (stereo not given in full)	0.25	-1.5
O=C(/C=C/c1cccc(Cl)c1)NCc1ccccc1	0.36	-1
O=C(COC(=O)c1ccc2c(c1)OCO2)NC1CCS(=O)(=O)C1 (stereo not given)	0.46	1.8
CC(C)(C)NC(=O)c1cccc(NC(=O)c2ccc3c(c2)C(=O)N(C(C)(C)C)C3=O)c1	1.2	-1.1
CCOC(=O)c1c(C)[nH]c(C(=O)CN2C(=O)NC3(CCCC3)C2=O)c1C	1.8	0.01
O=C(CCSc1ccccc1)NC(=O)COC(=O)c1ccc(OC(F)F)cc1	0.12	0.81
c1cn2c(NC3CCCC3)c(-c3ccc(N4CCOCC4)cc3)nc2cn1	0.45	1.6
COc1ccc(Br)cc1S(=O)(=O)N1CCOCC1	2	-0.38
COc1ccc2oc(=O)c(C(=O)Nc3cccc(C)c3)cc2c1	1	-1.2
CC(NC(=O)Cc1ccc(S(=O)(=O)N2CCOCC2)s1)c1ccc(Cl)cc1Cl (stereo not given)	2.5	1.9
O=S(=O)(NCc1ccc2c(c1)OCO2)c1cccc2cccnc12	13*	1.9*
Cc1ccc(NC(=O)CCn2c(=O)oc3ccccc32)cc1	0.75	-0.03
Cc1cc(C(=O)N2CCCC(C(=O)c3cccc(C(F)(F)F)c3)C2)nc(C)n1 (stereo not given)	1.7	0.3
CCSc1nnc(NC(=O)COc2cccc3ccccc23)s1	0.24	1.6
CN(C)C=NC(=O)/C(C#N)=C/c1ccccc1	0.02	1.4
COc1ccccc1CNC(=O)C1CC(c2ccccc2[N+](=O)[O-])=NO1 (stereo not given)	0.15	0.9
NC(=NCc1ccco1)NC(=O)c1ccc(Cl)cc1	7*	-0.1*
CC(=O)Nc1ccc(S(=O)(=O)NCC(=O)NCCc2ccc(S(N)(=O)=O)cc2)cc1	1.4	-0.48
COc1ccc(OCC(=O)Nc2ncc3c(n2)CC(C)(C)CC3=O)cc1	2	-0.16
Cc1ccc2nc(SCC(=O)N3CCN(C(=O)c4ccco4)CC3)[nH]c2c1	0.54	0.34
O=C(Nc1cccc(-c2csc(Nc3ccc(Cl)cc3)n2)c1)c1ccccc1	0.1	0.47
CC(=O)Nc1ccc(CN2CCN(CCC(C)C)C(CCO)C2)cc1 (stereo not given)	0.53	-1
Clc1cccc(Cl)c1CNC1CCCC1	0.1	-0.34
COc1cc(/C=C/C(=O)OCC(=O)NCc2ccco2)ccc1OC(F)F	0.11	0.04
Cc1ccccc1-c1ocnc1C(=O)Nc1ccccc1NC(=O)c1ccccn1	0.57	-0.11
COc1cc([N+](=O)[O-])ccc1NC(=S)N1CCN(c2ccccn2)CC1	1.7	-0.53
Cc1nc(SCC(=O)NCCc2ccccc2)n[nH]1	0.35	0.25
Cc1ccc(C(=O)N2CCN(c3ccc(NC(=O)c4cc(C)cc(C)c4)cc3)CC2)cc1	0.13	-0.66
COc1ccc(NC(=O)CCC(=O)OCc2ccc(Br)cc2)cc1	0.5	0.64
O=C(Nc1ccc(Cl)c(Cl)c1)O/N=C/c1ccncc1	0.2	-2.2
CCN(C(=O)COC(=O)c1ccc(Cl)nc1)C1CCS(=O)(=O)C1 (stereo not given)	0.24	-2.2
Cc1onc(-c2ccccc2)c1C(=O)N1CCC(CO)(Cc2ccccc2)CC1	0.15	-0.97
Cc1ccccc1NC(=O)C1Cc2ccccc2C(=O)O1 (stereo not given)	0.26	-1.2
CCN(CC)c1ccc(-n2cc3c(=O)n(C)c(=O)n(C)c3c2)cc1	0.31	-0.26
CC1(C)CC(NC(=O)C2CCCCC2)CC(C)(C)N1	0.59	-0.94
O=C(Cn1[nH]c(=O)c2ccccc2c1=O)N1CC=C(c2ccccc2)CC1	0.1	-0.17
O=C(CCCc1ccccc1)N=C1SC2CS(=O)(=O)CC2N1c1ccccc1F (stereo not given)	0.85	0.01
COC(=O)c1c(C)nc2ccccc2c1C(=O)O	0.26	-2.4
CC(C)(C)C(=O)CSc1nc2c(c(-c3cccs3)c1C#N)CCC2	3.9	0.09

Fetched by compound from the list above:
SMILES	KCNQ2 pot	KCNQ2 pot baseline
CCN(C(=O)COC(=O)c1ccc(Cl)nc1)C1CCS(=O)(=O)C1 (stereo not given)	0.24	-2.2
Cc1onc(-c2ccccc2)c1C(=O)N1CCC(CO)(Cc2ccccc2)CC1	0.15	-0.97

Compounds from the list above that have a tert-butyl group, in the order listed:
SMILES	KCNQ2 pot	KCNQ2 pot baseline
CC(C)(C)NC(=O)c1cccc(NC(=O)c2ccc3c(c2)C(=O)N(C(C)(C)C)C3=O)c1	1.2	-1.1
CC(C)(C)C(=O)CSc1nc2c(c(-c3cccs3)c1C#N)CCC2	3.9	0.09

Other entries.
SMILES	KCNQ2 pot	KCNQ2 pot baseline
Cc1ccc2nc(N3CCCCC3)c(C=O)c(=O)n2c1	1.4	0
COc1ccc(CCN2C(=O)C3C4CCC(C4=C(C)C)C3C2=O)cc1OC (stereo not given)	1.5	4.2
O=C(Cn1nnc(-c2ccccc2NC(=O)c2ccccc2F)n1)NCc1ccco1	0.44	2.2
CC1CCCN(CCCNC(=O)c2ccc(CS(=O)(=O)Cc3cccc(Cl)c3)o2)C1 (stereo not given)	1.4	-1.1
CCN(CC)c1ccc(C(=O)Nc2ccccc2)cc1[N+](=O)[O-]	1.6	-1.6
O=C(Nc1nnc(C2CCCO2)s1)c1cccs1 (stereo not given)	0.83	-2.5
C/C(N)=C(/C#N)C(=O)COC(=O)c1cc(S(=O)(=O)N2CCCCC2)ccc1C	0.55	1.5
Cc1nn(CC#N)c(=O)n1N(C)c1ncc(C(F)(F)F)cc1Cl	0.63	1.3
Cc1nc(Nc2ccc3c(c2)OCCO3)c2c(C)c(C)sc2n1	0.16	1.1
CCOC(=O)CC(=O)Nc1c(C)cc(C)cc1C	1.1	-0.53
CC(=O)c1sc(NC(=O)c2cc3c(C)nn(-c4ccccc4)c3s2)nc1C	0.02	-0.32
Cc1ccc(/C(N)=N/OC(=O)N2CCOCC2)cc1	2.9	-0.82
COc1ccc(-c2noc(=O)n2Cc2ccc(C#N)cc2)cc1	0.45	2
COc1ccccc1CN1CC(C(=O)NC2CCCCC2)CC1=O (stereo not given)	0.3	1.6
CN(C)C(=O)c1ccc(-n2nc(C(F)(F)F)c3c2CCCC3)cc1	2.1	1.5

Part of the list above, comma-delimited.
compound,KCNQ2 pot,KCNQ2 pot baseline
CC(=O)Nc1ccc(S(=O)(=O)NCC(=O)NCCc2ccc(S(N)(=O)=O)cc2)cc1,1.4,-0.48
COc1ccc(OCC(=O)Nc2ncc3c(n2)CC(C)(C)CC3=O)cc1,2,-0.16
Cc1ccc2nc(SCC(=O)N3CCN(C(=O)c4ccco4)CC3)[nH]c2c1,0.54,0.34
O=C(Nc1cccc(-c2csc(Nc3ccc(Cl)cc3)n2)c1)c1ccccc1,0.1,0.47
CC(=O)Nc1ccc(CN2CCN(CCC(C)C)C(CCO)C2)cc1 (stereo not given),0.53,-1
Clc1cccc(Cl)c1CNC1CCCC1,0.1,-0.34
COc1cc(/C=C/C(=O)OCC(=O)NCc2ccco2)ccc1OC(F)F,0.11,0.04

(cont.)
SMILES	KCNQ2 pot	KCNQ2 pot baseline
CC(C)=CC(=O)Nc1c(C)cc(C)cc1Cl	11*	-0.43*
Cc1ccc(NC(=O)NCC2CCN(Cc3cc(C)ccc3Cl)CC2)c(C)c1	4.8	-1.3
Cc1ccnc(NC(=O)Nc2ccc(Br)cc2Cl)c1	0.27	-0.26
Nc1nonc1-n1nnc(C(=O)N/N=C/c2c(Cl)cccc2Cl)c1CSC1=NCCS1	0.32	1.4
Cc1cc(C(=O)NC(C)C2CCCO2)cs1 (stereo not given)	0.2	-0.04
COc1ccc2c(CC(=O)N[C@@H](Cc3ccccc3)C(=O)O)cc(=O)oc2c1C	0.84	-2.6
COc1cc(CCC(C)NCc2ccccc2)ccc1O (stereo not given)	0.66	4.2
COc1ccc(-c2noc(N3CCC(C(=O)Nc4ccc(F)cc4F)CC3)n2)cc1	0.01	-2
O=C(NCCc1ccccc1)c1c(F)c(F)c(F)c(F)c1F	0.26	-0.16
Cc1ccc(C)c(NS(=O)(=O)c2ccc(OCC(=O)NCc3ccco3)cc2)c1	0.43	0.1
O=C(O)CN1CCN(Cc2ccccc2F)C1=O	0.25	0.22
CCOC(=O)COc1cc(Br)c(C2NC(=O)NC(C)=C2C(C)=O)cc1OCC (stereo not given)	0.01	-0.39
COc1cc(C2C(C#N)=C(N)N(N(C)C)C3=C2C(=O)CC(C)(C)C3)cc(OC)c1OC (stereo not given)	1.1	0.03
Cc1ccc2c(SCC(=O)NCc3ccco3)nc(-c3ccc(F)cc3)nc2c1	0.45	0.87
NS(=O)(=O)c1ccc(CCNC(=O)CCNC(=O)c2ccco2)cc1	1.8	-0.05
COc1ccc2c(c1OC)C(=O)N1C(C(=O)O)Cc3c([nH]c4ccccc34)C21 (stereo not given)	1.4	0.02
COc1ccc(N(C)C(=O)Cc2c(C(=O)O)[nH]c3ccccc23)c(OC)c1	0.21	-1.4
CCC(=O)Nc1nc2ccccc2n1Cc1ccccc1Cl	0.73	2.2
OCCCNc1ncnc2oc(-c3ccccc3)c(-c3ccccc3)c12	2.1	0.38
CN(C)C(=O)CCC(=O)N1CCCCC1C(=O)Nc1ccc(Oc2ccccc2F)cc1 (stereo not given)	0.53	1.3
Cc1cccc(N2CCN(C(=O)C3CCN(c4nnc(-n5cccc5)s4)CC3)CC2C)c1 (stereo not given)	0.1	0.87
C#CCSc1nnc(C)c(C)n1	0.47	0.29
COc1ccc(C(=O)Nc2ccc(S(=O)(=O)N(C)c3ccccc3)cc2)cc1	0.22	0.03
CC(=O)Nc1c(C(=O)O)oc2ccc(Cl)cc12	0.65	1.9
COc1ccc(C(C(C(=O)c2cccs2)N2CCOCC2)N2CCOCC2)cc1OC (stereo not given)	0.32	0.34
COc1ccc2c(=O)cc(C(F)(F)C(F)(F)F)oc2c1	0.9	0.14
O=C(c1ccc(N2CCOCC2)c([N+](=O)[O-])c1)N1CCCCC1	1.1	-0.13
CCNS(=O)(=O)c1ccc(CCC(=O)O)cc1	0.58	1.7
Cc1cnc(NC(=O)CN(C)S(=O)(=O)c2ccc(Cl)cc2)s1	0.28	0.48
COc1ccc(C(C(=O)NC2CCCCC2)N(C(=O)CCl)c2ccc(Cl)cc2)cc1 (stereo not given)	0.11	-0.76
CCN1CCN(C(=O)N[C@@H](C(=O)N[C@@H]2C(=O)N3[C@@H]2SC(C)(C)[C@@H]3C(=O)O)c2ccccc2)C(=O)C1=O	0.59	-1.7
CN(CC(=O)OCC(=O)NCC(F)(F)F)S(=O)(=O)c1ccc(Cl)cc1	1.4	-1.3
O=S1(=O)N=C(N2CCN(c3ccc(F)cc3)CC2)c2ccccc21	0.01	0.52
Cc1ccccc1NS(=O)(=O)c1ccc(NC(=O)N2CCCCC2)cc1	1.5	-1.5
CC1CCN(CCCNC(=O)c2cc3sccc3n2C)CC1	0.52	1.4
O=C(Nc1ccc(Cl)cc1)Nc1nc(-c2ccccc2)cs1	0.88	-1
Cc1ccc(-c2csc(NC(=S)NC(=O)/C=C/c3ccco3)n2)cc1	0.23	-0.14
CN1CCC(N(C)S(=O)(=O)c2ccc(NC(=O)COc3ccc([N+](=O)[O-])cc3)cc2)CC1	1.3	-0.56
Cc1ccc(N/N=C/c2ccncc2)cc1	0.06	0.59
OCc1cccc(Nc2ncnc3sc4c(c23)CCCCC4)c1	3	-0.45
COc1cc(CNn2nnnc2N)cc(Br)c1OCC(=O)NC(C)(C)C	0.51	-0.5
